MLL AF4-AF9 inh: blocks AF4 peptide binding to human AF9. inhibition, % at 10 µM. AlphaScreen, biotin-AF4 peptide binding to FLAG-AF9. AID 651704. 350,000 tested, 0.47% active. P42568;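 active means every replicate reaching a set inhibition limit, whatever the replicate mean, cut at about 25% in these data; inconclusive means mean inhibition reaches that limit but some replicates miss it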;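 further: 0% = plate neutral control median and 100% = total signal loss; the record names both 10 and 1 µM as test concentration; the first replicate is given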
Ecoli growth: blocks Escherichia coli growth; OD600, 23 h; hits give low values; OD600 absorbance (concentration not given with the values); 330,000 tested, 0.21% active; AID 1053175;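 active means OD600 absorbance below the run mean of sample wells minus 3.6 SD, in any replicate, cut at about 0.56 in these data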;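 further: stock transfer was 300 nL into about 60 µL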
Vif TR-FRET: inhibitors of Vif binding to APOBEC3G peptide, primary screen, biochemical, TR-FRET, GST-Vif 1-94, biotin-A3G peptide, dose response retest (AID 1117319) | TR-FRET GST-Vif / biotin-A3G peptide binding; higher % means a stronger effect; test concentration not given here; strong numbers were not always called active | inhibition, %, or IC50 in µM where a hit was titrated | 260,000 tested, 0.57% active;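 active means above the screen mean plus three standard deviations and confirmed in dose response; inconclusive means results disagree or hit not tested in dose response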;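 further: Vif residues 1-94 fused to GST binding biotinylated APOBEC3G peptide 110-148; 0% = full assay without inhibitor and 100% = GST in place of GST-Vif; retest series ran down from 100 µM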
RanGTP-Imp inh: inhibitors of RanGTP-importin-beta interaction, primary screen, biochemical, FRET, CFP-Ran, YFP-importin-beta, homogeneous | cell-free CFP-Ran/YFP-importin-beta FRET ratio | AID 2216 | inhibition, % (no concentration beside the values) | 300,000 tested, 1.1% active;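 active means most replicates above 15%; inconclusive means exactly half above 15%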;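 further: 0% = DMSO wells and 100% = Ran loaded with GDP instead of GTP; wells of about 40 µL received 100 nL stock; the first replicate is given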
HNF4A DNA FP: change in binding of human HNF4 alpha to DNA. HNF4a-FITC DNA binding, fluorescence polarization, 1 h. activity change, % at 10 µM. 360,000 tested, 0.3% active; in the data active means activity change above about 30%, passing the limit was not always enough;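 further: controls were the assay level and a saturating level of protein; the project sought stronger binding though the title names inhibitors; some compounds called inactive have numbers as strong as hits; positive values seem to mean higher polarization but the record does not say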
Target sequence (P41235 whole entry, looked up): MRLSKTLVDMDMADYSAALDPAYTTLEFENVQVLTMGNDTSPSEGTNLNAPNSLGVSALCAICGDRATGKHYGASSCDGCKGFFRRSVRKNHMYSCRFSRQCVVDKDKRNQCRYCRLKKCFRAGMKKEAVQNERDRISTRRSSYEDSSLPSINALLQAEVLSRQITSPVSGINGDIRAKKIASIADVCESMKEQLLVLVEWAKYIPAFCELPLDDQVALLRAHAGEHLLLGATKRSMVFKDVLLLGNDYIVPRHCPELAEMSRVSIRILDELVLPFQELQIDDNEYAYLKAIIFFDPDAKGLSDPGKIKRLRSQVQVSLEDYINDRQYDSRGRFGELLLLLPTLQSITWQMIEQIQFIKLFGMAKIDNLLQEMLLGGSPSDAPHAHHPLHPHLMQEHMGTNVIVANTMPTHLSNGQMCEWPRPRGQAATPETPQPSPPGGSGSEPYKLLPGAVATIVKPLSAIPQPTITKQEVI
UCH37 DUB inh: inhibitors of human deubiquitinating enzyme UCH37; 330,000 tested, 0.33% active; inhibition, % (no concentration beside the values); purified proteasome/UCH37, Ub-AMC cleavage fluorescence;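 active means mean of two replicates above 20%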;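 further: 0% = compound-free wells with enzyme and 100% = wells lacking proteasome; stock transfer was 100 nL into about 20 µL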
Target sequence (Q9Y5K5 whole entry, looked up): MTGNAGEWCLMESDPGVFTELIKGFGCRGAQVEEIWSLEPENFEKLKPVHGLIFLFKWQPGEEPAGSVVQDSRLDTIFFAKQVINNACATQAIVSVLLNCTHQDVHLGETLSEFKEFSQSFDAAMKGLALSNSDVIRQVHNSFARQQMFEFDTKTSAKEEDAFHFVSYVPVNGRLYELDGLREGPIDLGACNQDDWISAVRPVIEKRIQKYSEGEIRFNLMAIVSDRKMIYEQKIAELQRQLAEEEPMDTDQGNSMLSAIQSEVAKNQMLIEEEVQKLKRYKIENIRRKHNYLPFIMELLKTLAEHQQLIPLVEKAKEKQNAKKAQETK
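system = Proteasome-associated human UCH37 deubiquitinase | amount = 0.15 nM proteasome as dispensed | medium = pH 7.4 Tris-HCl (50 mM) with ovalbumin, ATP-MgCl2, DTT | incubation = 30 min preincubation with enzyme, 25 min cleavage at room temperature | detection = AMC fluorescence 355/460 nm | read-out basis = percent inhibition | controls = no-proteasome and no-compound wells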
FGF22 binding: binders of recombinant human FGF22 by thermal shift; Q9HCT0; SYPRO orange fluorescence; percent of sucrose octasulfate shift, DMSO zero; calls only at 9.99 µM; 340,000 tested, 1.5% active;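 active means melting point raised past a set limit in the mean and every replicate; inconclusive means no clear call; three in four hits are not shown here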
Target sequence (Q9HCT0 whole entry, looked up): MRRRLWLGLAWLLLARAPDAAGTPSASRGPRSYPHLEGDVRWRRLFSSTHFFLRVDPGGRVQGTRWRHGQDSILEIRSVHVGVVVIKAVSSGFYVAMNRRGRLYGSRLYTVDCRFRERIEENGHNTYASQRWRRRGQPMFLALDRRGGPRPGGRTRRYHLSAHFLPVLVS
Active calls of the source: *; i = inactive; ? = inconclusive; · = not tested or not shown; + = active, no number. This is a subset; count on the stated rates, not on these rows.

SMILES | MLL AF4-AF9 inh | Ecoli growth | Vif TR-FRET | RanGTP-Imp inh | HNF4A DNA FP | UCH37 DUB inh | FGF22 binding
COc1ccc(OC)c(NC(=O)CSCC(=O)O)c1 | · | 0.734 | 13.2% | 3.9 | 4.6 | 7.2 | ·
COc1ccc(N2CCN(C(=O)COc3ccc(S(=O)(=O)N4CCOCC4)cc3C)CC2)cc1 | 1.4 | 0.666 | ? | -0.1 | -0.3 | 2.4 | i
CC(C)C(=O)Nc1ccc(C(=O)NNC(=S)NC(=O)c2ccco2)cc1 | -12.9 | 0.636 | · | 4.2 | 1.3 | 8.9 | i
COc1ccc(N(C(=O)C2CSC(=O)C2)C(C(=O)NC(C)(C)C)c2ccncc2)cc1 (stereo unspecified) | -1.4 | 0.659 | 3.4% | -2.4 | -1.3 | -2.6 | i
O=C(O)c1ccc(-c2nc(-c3cccc(C(F)(F)F)c3)cs2)cc1 | -1.1 | 0.693 | · | 2.9 | -1.4 | -6.6 | i
Cc1ccccc1NC(=O)CCCC(=O)c1ccccc1 | -2.3 | 0.646 | -6.7% | 0.2 | 1.0 | 3.9 | i
CCc1nc2c(OCCC3CCCCC3)cccn2c1N(C)C(=O)c1ccccc1F | 5.1 | · | · | · | 2.2 | · | i
Cc1c(CN2CCc3c([nH]c4ccccc34)C2C2CCCCC2)cnn1C (stereo unspecified) | 9.0 | 0.72 | 6.6% | 4.3 | -0.1 | -9.0 | i
CCOC(=O)CSc1nnc(CNC(=O)c2ccc(OC)cc2OC)n1C | · | 0.668 | 0.8% | 0.7 | -2.1 | -1.5 | ·
CCN(CC(=O)Nc1c(F)cccc1F)C(=O)c1ccc(OCc2c(C)noc2C)cc1 | -4.8 | 0.688 | -1.6% | · | -2.2 | 0.3 | i
COc1cccc(NC(=O)CSc2ncc(S(=O)(=O)c3ccccc3)c(=O)[nH]2)c1 | -8.7 | 0.71 | 4.2% | 30.4* | 0.0 | 4.8 | +
CCOC(=O)[C@H]1[C@H]2COc3ccccc3[C@@H]2N2C(=O)c3cc(F)c(F)cc3NC(=O)[C@@]12C | -2.3 | · | · | · | 2.6 | 5.2 | i
COc1ccc(C2C3=C(CCCC3=O)Nc3c(-c4ccccc4)c(C)nn32)cc1 (stereo unspecified) | · | 0.702 | -2.8% | 2.5 | -0.3 | -499.7 | ·
CC(=O)Nc1ccc(S(=O)(=O)NCc2nnnn2-c2ccc(Cl)cc2)cc1 | 4.8 | 0.67 | -9.2% | 2.1 | 1.5 | 0.1 | i
COC(=O)CN(c1ccc(OC)cc1)S(=O)(=O)c1ccc(OC)c(OC)c1 | · | 0.741 | -3.8% | 1.2 | -2.7 | 1.5 | ·
COC(=O)CNC(=O)C(C)NC(=O)CNC(=O)OCc1ccccc1 (stereo unspecified) | · | 0.716 | 3.4% | -3.0 | 1.9 | 2.5 | ·
COc1ccccc1N(C)S(=O)(=O)c1ccc(C(=O)OCC(=O)NCC(F)(F)F)cc1 | 0.4 | 0.653 | 7.6% | 2.0 | 1.6 | 2.7 | i
COc1cc(NC(=O)CCc2ccccc2)nc(OC)n1 | · | 0.693 | -0.6% | 2.4 | 3.5 | 2.3 | ·
Cc1ccccc1-n1nc2c(c1NC(=O)c1ccc(Br)o1)CSC2 | · | 0.668 | 17.6% | 0.5 | 0.7 | 1.7 | ·
Cc1oc(-c2ccccc2)nc1C(=O)OCC(=O)NCc1ccccc1 | -0.7 | 0.674 | 3.8% | · | 3.3 | 1.2 | i
CC(C)CN(CC(C)C)CC(O)COc1ccccc1Br (stereo unspecified) | -17.6 | 0.7 | -1.4% | 1.3 | -5.6 | 6.6 | i
Cn1c(N)c(C(=O)COC(=O)c2cccc(S(=O)(=O)N3CCOCC3)c2)c(=O)n(C)c1=O | 0.1 | 0.646 | -0.1% | · | 0.3 | 0.1 | i
N#Cc1nc(COc2ccc(Br)cc2)oc1N1CCCCCC1 | 9.9 | 0.756 | 1.0% | 2.5 | -1.4 | 1.6 | i
COc1ccccc1NCC(=O)n1nc(C)cc1C | 0.5 | · | 12.0% | 0.4 | 2.4 | · | i
CCOC(=O)CCc1c(C)nc2c(c(C)nn2-c2ccccc2)c1C | -4.2 | 0.657 | -22.5% | -1.7 | -0.1 | -5.9 | i
Cc1cccc(C)c1OCC(=O)Nn1c(COc2ccccc2)nc2ccccc2c1=O | · | 0.673 | 13.7% | -2.7 | 0.7 | 3.8 | ·
Cc1ccc(C(=O)NCCNC(=O)CN2CCCC2)cc1 | · | 0.681 | -1.9% | -6.0 | 1.2 | 4.2 | ·
CC(=O)C(Cc1ccc(Cl)nc1)Cc1ccc(Cl)nc1 | 0.1 | 0.691 | 3.0% | 0.7 | -4.5 | 3.3 | i
Cn1c(C(=O)NCc2cccs2)cc2c(=O)n(C)c3ccccc3c21 | -2.2 | 0.754 | -40.3% | -1.1 | -0.1 | 2.4 | i
Cc1ccc(NC(=O)CC2SCCNC2=O)cc1[N+](=O)[O-] (stereo unspecified) | 2.8 | 0.694 | 8.2% | 1.9 | 4.2 | 6.0 | i
COc1ccccc1/C=C/C=NC1C(=O)N(c2ccccc2)[N+](C)=C1C (stereo unspecified) | 3.0 | 0.649 | -4.7% | -1.3 | 0.1 | -2.8 | i
C/C(=N\Nc1nc(-c2ccccn2)nc2ccccc12)c1ccc(F)cc1 | · | · | ? | -4.0 | 1.0 | · | ·
COc1cc(OC)c(C(=O)OCC(=O)Nc2nnc(-c3ccccc3)o2)cc1OC | -1.7 | 0.691 | -19.3% | · | -1.6 | 4.3 | i
CC1(C)NC(=O)N(CC(O)CN(c2ccccc2)S(=O)(=O)c2ccccc2)C1=O (stereo unspecified) | -0.3 | 0.632 | -1.5% | -4.9 | 3.9 | 2.8 | i
COC(=O)C1c2ccccc2-c2ccccc21 | 0.6 | 0.66 | ? | · | 5.8 | 5.2 | ·
CC(OC(=O)CCc1ccccc1)C(=O)Nc1ncc(Cl)cc1Cl (stereo unspecified) | -2.3 | 0.739 | 1.8% | 2.6 | -2.1 | -0.4 | i
O=S(=O)(NCCc1c[nH]c2ccccc12)c1ccccc1 | 2.2 | 0.693 | 6.8% | -1.6 | -0.3 | 1.2 | i
CCc1ccc(NC(=O)Cn2c(SC)nc3ccccc32)cc1 | · | 0.713 | 12.3% | 4.1 | 1.2 | -0.3 | ·
O=C(OCC(=O)N1CCCc2ccccc21)c1cc(S(=O)(=O)N2CCOCC2)ccc1O | -17.9 | 0.685 | · | · | 2.1 | -15.5 | i
Cc1cnn(Cc2cccnc2)c1N | 0.2 | 0.66 | -7.7% | 3.8 | -3.5 | 1.5 | i
O=C1c2ccccc2C(=O)c2cc(S(=O)(=O)Nc3ccccc3)ccc21 | · | 0.669 | -11.9% | 0.4 | -0.4 | 4.3 | ·
COc1ccc(CNC(=O)C2CCN(S(=O)(=O)c3ccc4nc5c(c(C(=O)O)c4c3)CCCC5)CC2)cc1 | -3.9 | · | 4.8% | · | -1.5 | · | i
Nc1ccc(C#Cc2c(-c3ccsc3)oc3ccc(N4CCOCC4)cc23)cc1 | · | 0.712 | · | 1.0 | 0.9 | -104.2 | i
CSc1cc(C)nc(N(C)C(C)=O)n1 | -0.7 | 0.669 | 3.2% | -3.0 | 1.2 | 1.9 | i
COc1ccc(CC(=O)Nc2nc(-c3ccc(F)c(F)c3)cs2)cc1OC | -4.1 | 0.648 | · | 1.1 | -0.2 | 3.8 | i
COc1ccc(NC(=O)/C(Cl)=C(/Cl)S(=O)(=O)Cc2ccc(C)cc2)cn1 | · | 0.708 | 9.3% | -1.9 | -0.7 | 9.2 | ·
Cc1cccc(NS(=O)(=O)c2cccc(C(=O)NCC(c3ccco3)N(C)C)c2)c1 (stereo unspecified) | 8.1 | 0.698 | · | -2.1 | -2.4 | -3.5 | i
CCN(CC)C(=O)CSc1nnc(-c2ccc(O)cc2)n1CC1CCCO1 (stereo unspecified) | · | 0.699 | -1.5% | 4.4 | 4.2 | 2.6 | ·
Cc1nc(N(C)Cc2ccccc2)c2c(C)c(C)sc2n1 | -5.9 | 0.694 | · | 0.4 | 0.3 | 2.6 | i
CCc1nnc2sc(-c3cc(-c4ccccc4)nc4ccccc34)nn12 | · | 0.658 | -1.4% | 0.6 | -1.9 | -16.0 | ·
O=C(NCc1ccncc1)Nc1ccc(Cl)cc1Cl | · | 0.705 | 0.1% | 1.4 | 1.1 | 0.9 | ·
CCN1C(=O)CC(c2ccccc2)CC1=O | -2.6 | 0.686 | · | 1.4 | 1.1 | 2.9 | i
C/C(=C\c1ccccc1)CN1CCC(C(=O)N2CCCCC2)CC1 | -2.7 | 0.731 | 8.4% | -0.1 | -0.8 | 3.7 | i
CCCN(CCC)CCCNC(=O)c1cn(CCOC)c(=O)c2c1c1ccccc1n2C | · | 0.679 | 79.7% | 2.9 | 2.8 | -101.9 | ·
CC(C)c1nc2cc(C(=O)NC(c3cccnc3)C(F)(F)F)ccc2o1 (stereo unspecified) | -1.5 | 0.674 | · | 0.6 | -0.4 | 4.4 | i
CN1CCN(CC(=O)N/N=C\c2c[nH]c3ccccc23)CC1 | 4.6 | · | 0.7% | 3.6 | · | · | i
Cc1ccc(C(=O)Nc2cccc(C(=O)NCc3ccccc3)c2)cc1 | -23.0 | 0.653 | -9.3% | 1.3 | -3.9 | 4.4 | i
CCOC(=O)/C(=C\c1ccc([N+](=O)[O-])o1)NC(=O)c1ccccc1 | · | 0.673 | 19.1% | 2.5 | 1.5 | 9.5 | ·
CCOc1ccc(NC(=O)C(C)N2C(=O)c3ccccc3S2(=O)=O)cc1 (stereo unspecified) | -1.7 | 0.722 | -2.0% | 1.2 | 3.1 | -1.7 | i
O=C1[C@@H](Oc2ccccc2)[C@@H](c2ccccc2)N1c1ccccc1 | -1.0 | 0.72 | -7.0% | · | -3.4 | -1.4 | i
(next part)
SMILES | MLL AF4-AF9 inh | Ecoli growth | Vif TR-FRET | RanGTP-Imp inh | HNF4A DNA FP | UCH37 DUB inh | FGF22 binding
O=C(CSc1ccsc1[N+](=O)[O-])Nc1cccc(F)c1 | 0.2 | 0.655 | ? | ? | -24.2 | 4.7 | i
O=C(CSc1ccccn1)Nc1cccc2ccccc12 | 1.2 | 0.679 | 16.0% | -4.7 | 2.2 | -40.8 | i
COc1ccc(NC(=O)CC(NC(C)c2ccccc2)C(=O)O)cc1 (stereo unspecified) | -2.7 | 0.707 | 0.6% | 7.3 | -3.3 | 2.2 | i
COc1ccc(-c2cc(C(=O)Nc3ccccc3SC)no2)cc1OC | · | 0.736 | 1.0% | -3.9 | 2.5 | -36.6 | ·
CC(=O)c1sc2nc(-c3ccco3)ccc2c1N | -1.0 | 0.602 | 2.78µM* | -3.5 | -21.9 | -29.2 | i
CCn1ncc2c(OCc3ccc(C#N)cc3)cc(C)nc21 | · | 0.67 | -6.0% | 2.4 | -2.3 | 2.4 | ·

Whole records as entered above:
`COc1ccc(NC(=O)CC(NC(C)c2ccccc2)C(=O)O)cc1` (stereo unspecified) as listed: MLL AF4-AF9 inh = -2.7; Ecoli growth = 0.707; Vif TR-FRET = 0.6%; RanGTP-Imp inh = 7.3; HNF4A DNA FP = -3.3; UCH37 DUB inh = 2.2; FGF22 binding = i
`O=C(CSc1ccccn1)Nc1cccc2ccccc12` as listed: MLL AF4-AF9 inh = 1.2; Ecoli growth = 0.679; Vif TR-FRET = 16.0%; RanGTP-Imp inh = -4.7; HNF4A DNA FP = 2.2; UCH37 DUB inh = -40.8; FGF22 binding = i

Source: PubChem BioAssay
